Source: PubChem BioAssay (Broad Institute)
Vaccinia stage = blocks a specific stage of Vaccinia orthopoxvirus infection; Vaccinia-infected cells, mCherry/Venus stage reporter fluorescence; hits give low values; some inactives read as strong as hits; activity change (mCherry), % (test concentration not listed); actives 0.01% (n = 89,000);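 active = mCherry past -33% and 40 or more points under the early reporter, replicates agreeing; inconclusive = past -33% without that gap or agreement; tested in A549 cells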;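 also: scaled between vehicle wells and reference inhibitor wells; 23 nL library stock went into each well; one replicate is shown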
Vaccinia stage Venus = recorded beside Vaccinia stage, whose call it bears; activity change (Venus), %; measured here: Venus reporter, other viral stage;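 negative = less Venus signal; first of two replicates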
* hit, by the source's call; ? = inconclusive; . = no result given; & = joins results of further samples. Only part of the results is shown, so the mix of outcomes need not match the whole.

SMILES	Vaccinia stage	Vaccinia stage Venus
C[C@@H]1CN([C@@H](C)CO)C(=O)c2cc(NC(=O)Nc3cccc4ccccc34)ccc2O[C@H]1CN(C)Cc1ccncc1	-4	2
COCC(=O)Nc1ccc2c(c1)[C@H]1C[C@@H](CC(=O)NCc3ccccc3OC)O[C@@H](CO)[C@H]1O2	1	-2
CNC[C@@H]1Oc2ncc(-c3ccccc3C)cc2C(=O)N([C@H](C)CO)C[C@H]1C	-17	-10
C[C@H](CO)N1C[C@H](C)[C@@H](CN(C)S(=O)(=O)c2cn(C)cn2)Oc2c(NC(=O)NC3CCCCC3)cccc2C1=O	1	-3
CO[C@H](CN(C)S(=O)(=O)c1ccc(C)cc1)[C@H](C)CN(Cc1ccccc1Cl)[C@H](C)CO	-11	-10
O=C(C[C@@H]1CC[C@H]2[C@@H](COC[C@@H](O)CN2S(=O)(=O)c2ccccc2)O1)NCc1ccc(-c2ccccc2)cc1	-34	-31
C[C@H](O)C#Cc1cnc2c(c1)C(=O)N([C@@H](C)CO)C[C@@H](C)[C@@H](CN(C)CC1CCOCC1)O2	23	9
COCCOC(=O)N1C(=O)[C@@]2(c3cc(C#CCCO)ccc31)[C@H](c1ccc(O)cc1)N1[C@H](c3ccccc3)[C@H](c3ccccc3)OC(=O)[C@H]1[C@@H]2C(N)=O	8	0
COCC#Cc1ccc2c(c1)O[C@@H](CN(C)Cc1ccc(F)cc1)[C@H](C)CN([C@H](C)CO)S2(=O)=O	?	.
Cc1ccccc1S(=O)(=O)N1CC(=O)N2[C@H](C1)[C@@H](c1ccc(C#CCN(C)C)cc1)[C@@H]2CO	7	1
C[C@@H]1CN([C@H](C)CO)C(=O)CCCn2nncc2CO[C@H]1CN(C)Cc1ccc(O)cc1	22	0
CNC[C@H]1Oc2ccc(N(C)C)cc2CC(=O)N([C@@H](C)CO)C[C@H]1C	2	11
O=C(NCCc1ccccc1)[C@@H]1N[C@@H]2c3ccc(-c4ccc(F)cc4)c(=O)n3C[C@@H]2[C@H]1CO	-7	-4
C[C@H]1CN([C@@H](C)CO)C(=O)c2cc(Br)cnc2O[C@H]1CN(C)Cc1ccc(Oc2ccccc2)cc1	?	.
CN1C(=O)c2cc(NC(=O)Cc3cccs3)ccc2OC[C@H]2O[C@H](CC(=O)NCc3ccc(-c4ccccc4)cc3)CC[C@H]21	-18	-6
CCCN1[C@@H]2c3ccc(/C=C/c4ccccc4)c(=O)n3C[C@H]1[C@H](CO)[C@H]2C(=O)NCc1ccccn1	0	-4
C[C@H]1CN([C@@H](C)CO)C(=O)CCCn2nncc2CO[C@@H]1CN(C)C(=O)Nc1ccc(N2CCCCC2)cc1	7&4	-3&5
CS(=O)(=O)Nc1ccc2c(c1)[C@H]1C[C@@H](CC(=O)NCCN3CCCCC3)O[C@@H](CO)[C@H]1O2	2	1
CCC(=O)Nc1ccc2c(c1)C(=O)N(C)C[C@H](OC)[C@@H](C)CN(C(=O)c1ccncc1)[C@@H](C)CO2	21	13
C[C@H](CO)N1C[C@H](C)[C@@H](CN(C)Cc2ccc(C(F)(F)F)cc2)Oc2ccc(NC(=O)C3CCCCC3)cc2CC1=O	?	.

The last three entries of the section above lead into the next:
SMILES	Vaccinia stage	Vaccinia stage Venus
CS(=O)(=O)Nc1ccc2c(c1)[C@H]1C[C@@H](CC(=O)NCCN3CCCCC3)O[C@@H](CO)[C@H]1O2	2	1
CCC(=O)Nc1ccc2c(c1)C(=O)N(C)C[C@H](OC)[C@@H](C)CN(C(=O)c1ccncc1)[C@@H](C)CO2	21	13
C[C@H](CO)N1C[C@H](C)[C@@H](CN(C)Cc2ccc(C(F)(F)F)cc2)Oc2ccc(NC(=O)C3CCCCC3)cc2CC1=O	?	.
CC(=O)N(C)C[C@H]1Oc2cc(C#CCN(C)C)ccc2S(=O)(=O)N([C@H](C)CO)C[C@H]1C	18	16
CC(C)CC#Cc1cnc2c(c1)C(=O)N([C@H](C)CO)C[C@@H](C)[C@@H](CN(C)S(=O)(=O)c1ccccc1)O2	1	1
C[C@@H]1CN([C@@H](C)CO)C(=O)c2cc(NC(=O)Nc3ccc(F)cc3)ccc2O[C@@H]1CN(C)S(=O)(=O)c1ccccc1	-22	-17
C[C@H]1CN([C@@H](C)CO)C(=O)c2cc(-c3cncnc3)cnc2O[C@@H]1CN(C)C(=O)Cc1ccccc1	6	6
CC(=O)N1CCCCN2[C@H](CO)[C@H](c3ccc(-c4ccncc4)cc3)[C@H]2C1	26	9
COCC(=O)Nc1ccc2c(c1)[C@@H]1C[C@@H](CC(=O)NCc3ccccc3)O[C@@H](CO)[C@@H]1O2	7	3
O=C(C[C@H]1C[C@@H]2c3cc(NC(=O)Nc4ccccc4)ccc3O[C@@H]2[C@@H](CO)O1)NCc1cccc(F)c1	16	14
Cc1noc(C)c1NC(=O)Nc1ccc2c(c1)C(=O)N([C@H](C)CO)C[C@@H](C)[C@@H](CN(C)C(=O)C1CCCCC1)OCCCC[C@@H](C)O2	1	3
O=C(C[C@H]1CC[C@@H]2[C@H](COC[C@H](O)CN2C(=O)c2ccccc2)O1)Nc1ccccc1	8	3
O=C(Nc1ccc2c(c1)[C@@H]1C[C@H](CC(=O)N3CCCCC3)O[C@@H](CO)[C@@H]1O2)NC1CCCC1	-1	-12
C[C@@H]1CN([C@@H](C)CO)C(=O)c2cc(NS(C)(=O)=O)ccc2O[C@@H](C)CCCCO[C@H]1CN(C)C(=O)Nc1ccc(C(F)(F)F)cc1	11	14
CO[C@@H]1CN(C)C(=O)c2cc(NC(=O)C3CCOCC3)ccc2OC[C@@H](C)N(Cc2nccs2)C[C@@H]1C	2	9
C[C@H]1CN([C@@H](C)CO)S(=O)(=O)c2ccc(C#CCN(C)C)cc2O[C@H]1CN(C)C	12	-4
C[C@@H]1CN([C@@H](C)CO)C(=O)c2cc(NC(=O)Cc3cn(C)c4ccccc34)ccc2O[C@H]1CN(C)Cc1ccc(-c2ccccc2)cc1	-7	-4
C[C@@H]1CN([C@@H](C)CO)C(=O)Cc2cc(NC(=O)NC3CCCCC3)ccc2O[C@H]1CN(C)S(=O)(=O)c1ccc(Cl)cc1	-19	-5
Cc1noc(C)c1NC(=O)N(C)C[C@@H]1Oc2c(NC(=O)C3CCCCC3)cccc2C(=O)N([C@H](C)CO)C[C@@H]1C	14	15
CCCNC(=O)N1C[C@@H](O)COC[C@@H]2O[C@@H](CC(=O)NCCCN3CCOCC3)CC[C@H]21	12	5
C[C@H]1CN([C@@H](C)CO)S(=O)(=O)c2ccc(-c3ccccc3)cc2O[C@H]1CN(C)C(=O)C1CCCCC1	?	.
CN(C)C(=O)C[C@H]1CC[C@H]2[C@@H](COc3ccc(NC(=O)C4CC4)cc3C(=O)N2C)O1	24	13
COc1ccc(NC(=O)Nc2cccc3c2O[C@H](CN(C)C(=O)NC2CCCCC2)[C@@H](C)CN([C@@H](C)CO)C3=O)cc1	-4	-3
CO[C@@H]1CN(C)C(=O)c2ccc(NC(=O)NC(C)C)cc2OC[C@@H](C)N(S(C)(=O)=O)C[C@H]1C	4	2
COc1ccc2c3c(n(C)c2c1)[C@H](CO)N(C(=O)C1CCC1)CC31CN(C(=O)Nc2cccc(F)c2)C1	-32	-33
C[C@@H]1CN([C@H](C)CO)C(=O)Cc2cc(NC(=O)NC3CCCCC3)ccc2O[C@@H]1CN(C)Cc1ccc(C(=O)Nc2ccccc2N)cc1	0	-1
C[C@H]1CN([C@@H](C)CO)S(=O)(=O)c2ccc(-c3ccncc3)cc2O[C@H]1CN(C)C(=O)CN(C)C	11	8
CNC(=O)C[C@@H]1CC[C@@H]2[C@H](COc3ccc(NC(=O)NC4CCCC4)cc3C(=O)N2C)O1	13	-1
CN1c2ccc(-c3cccc(C#N)c3)cc2[C@H]2[C@H](CCN2C(=O)CN2CCOCC2)[C@@H]1CO	-13	-19
C[C@@H]1CN([C@H](C)CO)C(=O)c2cccc(NC(=O)C3CC3)c2O[C@@H]1CN(C)S(=O)(=O)c1cccs1	0	-4
C[C@H]1CN([C@@H](C)CO)C(=O)c2cccc(NC(=O)C3CCOCC3)c2O[C@@H]1CN(C)S(=O)(=O)c1ccc(Cl)cc1	1	-1
COc1ccccc1CNC(=O)C[C@@H]1CC[C@H]2[C@@H](COC[C@@H](O)CN2Cc2ccc3c(c2)OCO3)O1	-9	-10
C[C@@H]1CN([C@H](C)CO)C(=O)c2cc(NC(=O)C3CCCCC3)ccc2O[C@H]1CN(C)S(=O)(=O)c1cn(C)cn1	13	5
CN(C)CCCNC(=O)C[C@@H]1CC[C@@H](NC(=O)c2ccccc2F)[C@H](CO)O1	1	9
CCOC(=O)N(C)C[C@@H]1OCc2ccccc2-c2c(n(C)c3ccccc23)C(=O)N([C@H](C)CO)C[C@@H]1C	-8	-5
O=C(CN1CCOCC1)N[C@@H]1CC[C@H](CCNC(=O)C2CCCCC2)O[C@H]1CO	1	5
C[C@H]1CN([C@@H](C)CO)C(=O)c2cc(C3=CCCCC3)cnc2O[C@H]1CN(C)C(=O)c1ccccc1	6	3
CCS(=O)(=O)Nc1ccc2c(c1)C(=O)N(C)[C@@H]1CC[C@@H](CC(=O)NC)O[C@@H]1CO2	-1	-5
CCS(=O)(=O)N1[C@H](CO)[C@@H](c2ccc(-c3cccc(F)c3)cc2)[C@@H]1C#N	-15	-13
C/C=C/c1ccccc1[C@@H]1[C@@H](C#N)N(C(=O)CN2CCOCC2)[C@H]1CO	13	12
CCNC(=O)C[C@H]1CC[C@@H]2[C@H](COc3ccc(NC(=O)Cc4cccs4)cc3C(=O)N2C)O1	15	17
CNC[C@@H]1OCc2cnnn2CCCC(=O)N([C@H](C)CO)C[C@H]1C	16	10
COc1cccc(NC(=O)N(C)C[C@@H]2Oc3ncc(C#Cc4cccnc4)cc3C(=O)N([C@H](C)CO)C[C@H]2C)c1	7	4
CC=Cc1ccc2n(c1=O)C[C@H]1[C@H](CO)[C@@H](C(=O)NCCC)N(Cc3ccccn3)[C@@H]21 (mixture of isomers)	-7	3
O=C(C1CCC1)N1CC(=O)N2[C@H](CO)[C@@H](c3ccc(-c4cccnc4)cc3)[C@H]2C1	-5	-6
COCC(=O)Nc1ccc2c(c1)OC[C@H](C)N(Cc1ccccc1)C[C@@H](C)[C@H](OC)CN(C)C2=O	-11	-11
C[C@@H]1CCCCO[C@@H](CN(C)S(=O)(=O)c2cn(C)cn2)[C@H](C)CN([C@@H](C)CO)C(=O)c2cc(NC(=O)C3CCCCC3)ccc2O1	16	6
C[C@@H]1CN([C@H](C)CO)C(=O)CCCn2nncc2CO[C@H]1CN(C)C(=O)NC1CCCCC1	20	16
COc1ccc(NC(=O)Nc2ccc3c(c2)C(=O)N([C@@H](C)CO)C[C@H](C)[C@@H](CN(C)Cc2ccc(Cl)c(Cl)c2)OCCCC[C@@H](C)O3)cc1	-21	-13
O=S(=O)(N[C@H]1CC[C@@H](CCn2cc(C3(O)CCCC3)nn2)O[C@H]1CO)c1ccc(F)cc1	-2	2
O=C(Cc1ccccn1)N1CC(=O)N2[C@H](C1)[C@@H](c1ccc(C#CC3CCCCC3)cc1)[C@@H]2CO	?	.
C[C@@H]1CCCCO[C@@H](CN(C)S(=O)(=O)c2cccs2)[C@H](C)CN([C@@H](C)CO)C(=O)c2cc(NC(=O)Nc3ccc4c(c3)OCO4)ccc2O1	-7	-1
Cc1noc(C)c1NC(=O)N(C)C[C@@H]1OCCCC[C@H](C)Oc2ccc(NS(=O)(=O)c3c(C)noc3C)cc2C(=O)N([C@@H](C)CO)C[C@@H]1C	17	13
C[C@H]1CN([C@@H](C)CO)C(=O)Cc2cc(NC(=O)CCN3CCOCC3)ccc2O[C@H]1CN(C)C(=O)NC1CCCCC1	6	11
N#Cc1cccc(-c2ccc([C@H]3[C@H]4CN(C(=O)Cc5ccccc5)CCCCN4[C@H]3CO)cc2)c1	-26	-19
Cc1ccc(S(=O)(=O)N(C)C[C@@H]2OCCCC[C@H](C)Oc3ccc(NC(=O)Nc4ccc(C(F)(F)F)cc4)cc3C(=O)N([C@@H](C)CO)C[C@@H]2C)cc1	-21	-10
CN1CCN(C(=O)C[C@H]2CC[C@H]3[C@@H](COC[C@@H](O)CN3Cc3ccc4c(c3)OCO4)O2)CC1	16	8
O=C(C[C@@H]1CC[C@@H]2[C@H](COC[C@H](O)CN2C(=O)c2ccc3c(c2)OCO3)O1)NCCN1CCCCC1	11	9
N#C[C@@H]1[C@@H](c2ccc(C#Cc3ccccc3F)cc2)[C@@H](CO)N1C(=O)C1CCCCC1	-16	-9
CO[C@H](CN(C)C(=O)c1cc(Cl)cc(Cl)c1)[C@@H](C)CN(C(=O)Nc1ccc(F)cc1)[C@@H](C)CO	6	4
COc1ccc(NC(=O)Nc2cccc3c2O[C@@H](CN(C)C)[C@H](C)CN([C@@H](C)CO)C3=O)cc1	14	7
COc1ccc(CN(C)C[C@@H]2Oc3c(NC(=O)c4nc5ccccc5s4)cccc3C(=O)N([C@@H](C)CO)C[C@H]2C)cc1	-30	-21

Profiles from above. Order of screens: Vaccinia stage | Vaccinia stage Venus
CCCN1[C@@H]2c3ccc(/C=C/c4ccccc4)c(=O)n3C[C@H]1[C@H](CO)[C@H]2C(=O)NCc1ccccn1 is entered as 0 | -4
C[C@H](CO)N1C[C@H](C)[C@@H](CN(C)S(=O)(=O)c2cn(C)cn2)Oc2c(NC(=O)NC3CCCCC3)cccc2C1=O is entered as 1 | -3
C[C@H]1CN([C@@H](C)CO)C(=O)c2cc(C3=CCCCC3)cnc2O[C@H]1CN(C)C(=O)c1ccccc1 is entered as 6 | 3
C[C@H](O)C#Cc1cnc2c(c1)C(=O)N([C@@H](C)CO)C[C@@H](C)[C@@H](CN(C)CC1CCOCC1)O2 is entered as 23 | 9
COc1ccc2c3c(n(C)c2c1)[C@H](CO)N(C(=O)C1CCC1)CC31CN(C(=O)Nc2cccc(F)c2)C1 is entered as -32 | -33
